Source: PubChem (several laboratories)
MT1-MMP act inh: blockers of MT1-MMP proenzyme processing, primary screen, HT1080 RFP-PRO-GFP cells, GFP/RFP fluorescence | Matrix metalloproteinase-14 (Homo sapiens), P50281 | GFP/RFP ratio fluorescence, overnight; percent of plate control window, DMSO zero | GFP/RFP ratio change, % at 20 µM | 360,000 compounds, 0.061% hits | AID 651647, 2012;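 active = GFP/RFP ratio change of at least 30% with cell ATP level not reduced by more than half and red fluorescence within 50% of control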; also: strong numbers were not always called active
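Test system: HT1080 cells expressing an RFP-PRO-GFP fluorescent reporter construct / Compound dosing: single-point 20 µM compound, 1% DMSO / Schedule: cells overnight before dosing, compound overnight, 37 °C, 5% CO2 / Evaluation: GFP/RFP fluorescence ratio / Control set: DMSO and RFP-L50D-GFP cell wells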
PABP FP inh: PABP poly(A) RNA binding inhibitors, primary screen, biochemical, fluorescence polarization, uHTS. 290,000 compounds, 1% hits. inhibition, % at 35 µM;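 active = 50% or more with normal probe brightness, or confirmed in later tests; inconclusive = above 50% with abnormal brightness, or retests that disagree; inactive = below 50% or failed in later tests; about a fifth of its hits are not listed in these tables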;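 also: calls also rest on retests at 20 µM and on dose response follow-up; controls were probe without protein and protein plus probe with vehicle; some compounds called inactive have numbers as strong as hits; many hits fall short of the cut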
Target sequence (P11940 whole entry, looked up): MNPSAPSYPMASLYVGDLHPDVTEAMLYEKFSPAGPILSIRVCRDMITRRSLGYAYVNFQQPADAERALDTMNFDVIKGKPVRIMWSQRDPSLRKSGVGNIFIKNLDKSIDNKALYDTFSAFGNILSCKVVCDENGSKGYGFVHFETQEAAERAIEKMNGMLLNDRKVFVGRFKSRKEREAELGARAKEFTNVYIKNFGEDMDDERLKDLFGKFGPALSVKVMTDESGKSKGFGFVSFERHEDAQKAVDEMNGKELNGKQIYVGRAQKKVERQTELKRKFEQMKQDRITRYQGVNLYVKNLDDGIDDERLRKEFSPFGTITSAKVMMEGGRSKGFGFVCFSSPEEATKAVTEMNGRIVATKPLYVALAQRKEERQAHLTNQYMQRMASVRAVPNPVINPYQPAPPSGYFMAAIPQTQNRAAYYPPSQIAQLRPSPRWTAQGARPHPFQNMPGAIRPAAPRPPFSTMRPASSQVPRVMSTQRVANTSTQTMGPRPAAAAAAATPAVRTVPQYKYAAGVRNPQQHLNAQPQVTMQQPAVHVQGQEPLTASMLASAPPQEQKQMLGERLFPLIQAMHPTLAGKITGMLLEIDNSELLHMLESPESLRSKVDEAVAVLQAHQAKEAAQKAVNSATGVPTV
eIF4H FP inh: human eIF4H binding inhibitors, primary screen, translation initiation inhibitor project, biochemical, uHTS, fluorescence polarization. 290,000 compounds, 0.94% hits. inhibition, % at 35 µM. Eukaryotic translation initiation factor 4H (Homo sapiens), Q15056. eIF4H fluorescence polarization binding assay;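 active = 50% or more with normal probe brightness, or confirmed in later tests; inconclusive = above 50% with abnormal brightness, or retests that disagree; inactive = below 50% or failed in later tests; about a fifth of its hits are not listed in these tables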;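 also: calls also rest on retests at 20 µM and on dose response follow-up; 0% = protein and probe with vehicle and 100% = probe without protein; strong numbers were not always called active; many hits fall short of the cut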
UUG fidelity: modulators of yeast start codon fidelity, primary screen, whole organism, S. cerevisiae, single point, plate reader. S. cerevisiae UUG-firefly luciferase reporter, luminescence/redox ratio. activity score, % at 18.7 µM. 350,000 compounds, 0.13% hits. AID 602363, 2012;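 active = replicate mean at a twofold rise or more, about +100% in these data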;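 also: firefly luciferase made from a UUG start codon reports start codon fidelity; reporter light over untreated wells divided by growth signal over untreated wells; some hits fall short of that in this replicate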
CSC inhib: cancer stem cell viability inhibitors, primary screen, luminescence | AID 2717, 2010 | 300,000 compounds, 1.1% hits | cancer stem cell-like cells viability | inhibition, % at 7.5 µM;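 active = mean at 75% or more and at least half the replicates too; inconclusive = mean and replicates disagree; tested in HMLE shEcad cells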;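 also: 0% = median of negative and 100% = median of positive control wells; the first replicate is given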
Rce1 inh: yeast Rce1p protease inhibitors, primary screen, biochemical, fluorescence, cell-free homogeneous; yeast membranes, quenched prenylated peptide cleavage fluorescence; calls only; 290,000 compounds, 0.27% hits;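 active = fall in fluorescence gain of 50% or more versus controls, with final raw signal at or below 3038400; inconclusive = same 50% fall but final raw signal above 3038400; inactive = fall in fluorescence gain under 50%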;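 also: plate controls were neutral control wells for no effect and wells lacking membranes for full effect; tested at 10 µM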
Target sequence (Q03530 whole entry, looked up): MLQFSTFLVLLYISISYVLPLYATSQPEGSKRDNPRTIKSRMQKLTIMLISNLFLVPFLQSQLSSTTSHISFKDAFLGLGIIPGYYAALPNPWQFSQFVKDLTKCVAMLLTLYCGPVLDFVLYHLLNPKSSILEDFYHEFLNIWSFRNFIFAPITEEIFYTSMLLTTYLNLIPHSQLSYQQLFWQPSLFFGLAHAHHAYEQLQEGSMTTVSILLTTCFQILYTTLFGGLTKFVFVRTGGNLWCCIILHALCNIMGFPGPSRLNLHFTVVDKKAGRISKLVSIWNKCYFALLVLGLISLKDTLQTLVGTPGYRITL
Env fusion inh: inhibitors of HIV-1 Env-driven cell-cell fusion, primary screen, HeLa-JRFL effector, CEM21 target cells, luciferase | inhibition, % at 12.3 µM | 360,000 compounds, 1.1% hits | AID 651610, 2012;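 active = mean replicate inhibition score of at least 50 and every replicate individually at or above 50; inconclusive = only one of the two criteria met; inactive = mean below 50 and not all replicates reaching 50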;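 also: 0% = plate neutral controls and 100% = maraviroc near 300 nM; one replicate is shown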
MT1-MMP act inh RFP: recorded beside MT1-MMP act inh, whose call it bears; RFP signal change, %; measured here: RFP expression control read;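 0 = vehicle wells; hits needed this value within 50% of zero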
* hit, by the source's call; i = inactive; ? = inconclusive; . = no result given.

SMILES	MT1-MMP act inh	MT1-MMP act inh RFP	PABP FP inh	eIF4H FP inh	UUG fidelity	CSC inhib	Rce1 inh	Env fusion inh
CN(C)c1ncnc2c1ccn2C1OC(CO)C(O)C1O (centres undefined)	1	1	.	.	-12	.	.	77*
O=C(CN1CCOc2ccccc21)NCc1ccc(F)cc1	0	3	-6	-1	-10	-11	i	7
COc1ccc(CNc2ccc(C)c(C)c2)c(OC)c1OC	-4	-2	-3	8	.	5	.	11
COC(=O)Cc1nc2c(N)nc(N)nc2[nH]c1=O	-2	0	.	.	-26	.	.	-19
Cc1ccc(CNC(=O)COC(=O)c2ccc(Br)cc2)cc1	7	5	-6	11	.	-10	i	7
CCCCNC(=O)C1(C)CCC(=O)N1c1cc(C(C)(C)C)nn1C (centres undefined)	5	8	.	.	-5	.	.	-10
O=C(O)c1cnc(-c2ccccc2)nc1Sc1cccc(Cl)c1	2	-2	-3	-13	.	16	i	-21
CCN(C(=O)COC(=O)c1c(NC(C)=O)sc(C)c1C)C1CCS(=O)(=O)C1 (centres undefined)	0	4	-4	2	.	-5	i	5
Cc1nc(NCCc2ccccc2F)c(C#N)c(C)c1[N+](=O)[O-]	0	-6	8	6	11	7	i	.
CC1CN(C(=O)c2cc3cc(Cl)ccc3[nH]2)CC(C)O1 (centres undefined)	-2	-3	4	-3	.	-16	i	-15
Cc1cc(NCc2ccccn2)n2nc(C)c(-c3ccccc3)c2n1	4	-10	-10	-1	.	5	i	2
COc1ccc(Cc2nc3ccc(C(=O)NC4CCOC4)cc3o2)cc1OC (centres undefined)	-2	-22	.	.	-32	.	.	?
O=C(Nc1nc2cc3c(cc2s1)OCCO3)c1ccco1	0	-5	-10	-12	-67	-1	i	58*
CCCc1cc(C(=O)N2CCC(N3CCC(C(=O)NC(C)C)CC3)CC2)n(C)n1	9	10	3	1	-17	-9	i	-2
CNc1nc(OCCNC(=O)Nc2ccccc2)nc(N2CCOCC2)n1	1	3	-1	-5	-7	1	i	-45
O=C(COC(=O)c1cccnc1Cl)c1cccc(Cl)c1	-1	7	8	3	-9	-12	i	0
CCOc1ccccc1CN1CCNC(=O)C1CC(=O)NCc1cc(C)n(C)n1 (centres undefined)	-2	2	11	11	-6	-4	i	8
CCN(CCO)Cc1csc2ccc(Cl)cc12	2	3	-2	3	.	0	i	-35
N#Cc1ccc(C(=O)Nc2ccc3ccccc3c2)cc1	0	0	1	-14	-23	0	i	-237
CCOC(=O)c1cc(-c2nnc(-c3ccc(Oc4ccccc4)cc3)o2)c(C)nc1C	-3	-5	-16	-6	-13	19	i	10
CCn1c(-c2c(Cl)c(C)nn2C)n[nH]c1=S	1	4	13	-3	.	-3	i	-2
Cn1c2ccccc2c(=O)c2cc(C#CC3(O)CCCCC3)ccc21	4	0	5	10	-11	-1	i	-65
O=C(Nc1nnc(-c2ccccc2F)s1)c1cccnc1	-3	-3	-1	3	.	-5	i	-30
CCCCOP(=O)(c1ccc(N(C)C)cc1)C(Nc1ccccc1)c1ccccc1 (centres undefined)	-35	-26	4	10	8	15	i	.
CCCCCCC1CC(CCC(=O)Nc2ccc([N+](=O)[O-])cc2)C(=O)O1 (centres undefined)	3	1	3	-9	.	0	i	.
COC(=O)c1ccc2c(=O)n(Cc3ccc4c(c3)OCO4)c(SCC(=O)N3CCCC3)nc2c1	.	.	-2	-3	.	-10	i	3
CSc1c(CC(=O)NCCO)n(C)c2ccccc12	-7	3	-7	10	1	-7	i	-32
CCN1CCc2c(OCC(=O)Nc3cccc(C)c3C)cccc2C1=O	.	.	7	-4	.	-1	i	3
COc1cc(C(=O)c2cc3c(cc2C)OCO3)cc(OC)c1OC	19	3	.	.	-4	.	.	-145
CCN1CCN(C(=O)C2CCN(c3nnc(-n4c(C)ccc4C)s3)CC2)CC1	-1	3	-10	-2	-7	.	i	-14
CC1CC(=O)Nc2ccccc2N1C(=O)Nc1ccccc1 (centres undefined)	3	4	14	-11	-9	-13	i	7
CCS(=O)(=O)N1CCN(c2ccc([N+](=O)[O-])c(NCC3CCCO3)c2)CC1 (centres undefined)	1	-5	6	-8	.	13	i	24
Cc1n[nH]c(C)c1S(=O)(=O)N1CCCC(C(=O)N2CCN(c3ccc(Cl)cc3)CC2)C1 (centres undefined)	-1	-14	-3	-2	6	.	.	29
CC(=O)Nc1ccc(/C(C)=N/Nc2nc(Nc3ccccc3)nc(N3CCOCC3)n2)cc1	2	-1	0	-8	.	11	i	0
Nc1ncc(-c2ccccc2)c(-c2ccc(OCc3ccccc3)cc2O)n1	-5	-4	1	-2	-17	32	i	18
COCC(=O)N1CCC(Oc2ccc(C(=O)NC(C)c3nc(C)sc3C)cc2)CC1 (centres undefined)	-1	2	-15	-14	2	2	i	2
O=C(Nc1c(C(=O)N2CCN(c3ccccn3)CC2)oc2ccccc12)c1ccc([N+](=O)[O-])cc1	4	-1	-2	-12	-1	-5	i	-7
Cc1cccc(C)c1NC(=O)CCCN1CC(C)OC(C)C1 (centres undefined)	-1	-8	-6	-6	-5	-3	i	.
CCOC(=O)c1cnc(-n2nc(C)cc2C)nc1NNc1nc(-c2ccccc2)cc(-c2ccccc2)n1	8	-10	-3	10	-11	128*	i	.
COc1ccc(/C=N/Nc2cn[nH]c(=O)c2Cl)cc1	12	12	-13	3	.	21	i	34
CC1CCCCC1NC(=O)CN1CCC(O)(c2ccc(F)cc2)CC1 (centres undefined)	4	-3	-7	9	-12	6	i	.
CCOc1cc(C)c(Cl)cc1S(=O)(=O)N1CCCC1	-2	2	-14	-6	-15	-2	i	.
Cc1ccc(NC(=O)CCC(=O)NNC(=O)COc2ccc([N+](=O)[O-])cc2)cc1C	2	4	1	-2	-16	.	i	-160
COc1ccc(OCc2cc(C(=O)NC3CCOC(C)(C)C3)no2)c2ccccc12 (centres undefined)	-6	-2	14	2	-9	12	i	-30
COc1ccc(NC(=O)C2C3CCC4C(CCC32)C4(Cl)Cl)cc1 (centres undefined)	7	1	11	-6	-12	0	i	1
CC(OC(=O)CNC(=O)c1cccc(F)c1)C(=O)NC1CCCCC1C (centres undefined)	5	1	.	.	12	-16	i	-5
Cc1ccc(C2=NN(C(=O)CCC(=O)O)C(c3cccc([N+](=O)[O-])c3)C2)cc1 (centres undefined)	-2	-1	4	4	-1	4	i	7
O=C(CCc1nnc(Cc2ccc(-c3ccccc3)cc2)o1)N1CCCC1	4	1	5	-7	.	.	i	21

Quoted from the listing:
For eIF4H FP inh, `O=C(O)c1cnc(-c2ccccc2)nc1Sc1cccc(Cl)c1` is entered as -13
For UUG fidelity, `CCOC(=O)c1cc(-c2nnc(-c3ccc(Oc4ccccc4)cc3)o2)c(C)nc1C` is entered as -13
For PABP FP inh, `Cc1cccc(C)c1NC(=O)CCCN1CC(C)OC(C)C1` (centres undefined) is entered as -6
For UUG fidelity, `Cc1nc(NCCc2ccccc2F)c(C#N)c(C)c1[N+](=O)[O-]` is entered as 11

Whole records from above.
Cc1ccc(CNC(=O)COC(=O)c2ccc(Br)cc2)cc1 across the screens: MT1-MMP act inh: 7; MT1-MMP act inh RFP: 5; PABP FP inh: -6; eIF4H FP inh: 11; UUG fidelity: .; CSC inhib: -10; Rce1 inh: i; Env fusion inh: 7
O=C(O)c1cnc(-c2ccccc2)nc1Sc1cccc(Cl)c1 across the screens: MT1-MMP act inh: 2; MT1-MMP act inh RFP: -2; PABP FP inh: -3; eIF4H FP inh: -13; UUG fidelity: .; CSC inhib: 16; Rce1 inh: i; Env fusion inh: -21
CN(C)c1ncnc2c1ccn2C1OC(CO)C(O)C1O (centres undefined) across the screens: MT1-MMP act inh: 1; MT1-MMP act inh RFP: 1; PABP FP inh: .; eIF4H FP inh: .; UUG fidelity: -12; CSC inhib: .; Rce1 inh: .; Env fusion inh: 77*

The results go on.
SMILES	MT1-MMP act inh	MT1-MMP act inh RFP	PABP FP inh	eIF4H FP inh	UUG fidelity	CSC inhib	Rce1 inh	Env fusion inh
CN1OC(c2ccccc2)=C(CO)C1c1ccccc1 (centres undefined)	3	4	2	-2	.	2	i	-4
O=C1COc2ccc(C(=O)COC(=O)c3ccc4ccccc4n3)cc2N1	2	6	0	-10	-19	-12	i	.
Cc1cccc(C)c1NC(=O)C(NS(=O)(=O)c1cccs1)c1ccccc1 (centres undefined)	-2	-3	-5	4	-17	2	i	22
CN1C(=O)C(=O)/C(=C(/O)c2ccc(Br)cc2)C1c1ccc(F)cc1 (centres undefined)	3	4	5	-2	-14	0	i	7
COC(=O)C1=C(C)NC=C([N+](=O)[O-])C1c1ccc(OC)cc1 (centres undefined)	4	2	5	-16	-8	-16	i	-22
COc1ccc(-c2cn3cccnc3n2)cc1NS(=O)(=O)c1ccccc1	8	10	19	8	.	-11	i	3
CCOC(=O)C1C(=O)C(C(C)=O)C(=O)CC1CC(C)SCC (centres undefined)	1	-2	21	1	-10	-7	i	.
O=c1c(/C=N\NS(=O)(=O)c2ccccc2)coc2ccc(Cl)cc12	-3	1	0	0	-12	0	i	5
CCCCn1c2nc3ccccc3nc2c2c(=O)n(-c3ccccc3)cnc21	1	0	14	7	-4	.	i	7
COc1ccc(Cc2nnc(NC(=O)CS(=O)(=O)c3ccccc3)s2)cc1OC	-4	-6	7	7	-12	12	.	4
COc1ccccc1C(=O)COC(=O)c1cnc(C)cn1	4	1	.	.	.	-10	i	9
CCOC(=O)c1cnc(SCC(=O)N2CCC(C(N)=O)CC2)nc1N	3	5	2	-1	2	.	i	17

Marked active in Env fusion inh, among the entries above:
SMILES	MT1-MMP act inh	MT1-MMP act inh RFP	UUG fidelity	Rce1 inh	Env fusion inh
CN(C)c1ncnc2c1ccn2C1OC(CO)C(O)C1O (centres undefined)	1	1	-12	.	77*
O=C(Nc1nc2cc3c(cc2s1)OCCO3)c1ccco1	0	-5	-67	i	58*
